Compound activity from PubChem BioAssay.
TRPML1 ag: activates the human TRPML1 channel; AID 624414; TRPML1-expressing cells, Ca2+ dye fluorescence, FDSS; host cell line not named in the record; reference of the full effect not given here; 410,000 compounds, 0.12% hits; Q9GZU1; activation, % (concentration not given with the values); in the data active = activation above about 50%; inconclusive = about 30% to 50%; inactive = below about 30%; note: 0% is about no effect; the text of the record puts the active cut at 80%
Target sequence (Q9GZU1 whole entry, looked up): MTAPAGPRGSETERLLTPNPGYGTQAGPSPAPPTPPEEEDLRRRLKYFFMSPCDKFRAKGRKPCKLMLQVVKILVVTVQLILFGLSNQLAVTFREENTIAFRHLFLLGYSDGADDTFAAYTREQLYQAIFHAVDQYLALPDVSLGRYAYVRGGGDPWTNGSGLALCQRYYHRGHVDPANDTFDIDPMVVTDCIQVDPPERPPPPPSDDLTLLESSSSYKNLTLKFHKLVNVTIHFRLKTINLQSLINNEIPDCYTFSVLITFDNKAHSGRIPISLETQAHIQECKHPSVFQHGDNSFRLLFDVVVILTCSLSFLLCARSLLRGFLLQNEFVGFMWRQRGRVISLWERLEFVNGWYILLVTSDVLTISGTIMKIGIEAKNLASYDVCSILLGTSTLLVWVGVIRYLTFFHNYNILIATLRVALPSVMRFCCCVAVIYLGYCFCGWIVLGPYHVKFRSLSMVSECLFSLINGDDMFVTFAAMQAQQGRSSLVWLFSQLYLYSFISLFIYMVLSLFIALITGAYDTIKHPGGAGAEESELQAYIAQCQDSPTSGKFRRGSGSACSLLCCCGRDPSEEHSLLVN
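Cells: TRPML1-DL, 1X Tet inducer, ~16 h at 37 degrees C/5% CO2. Dye: ABD Ca8 no-wash + quencher, 45-90 min RT. Read: 10 s baseline, compound add, 110 s agonist phase; 54-4 EC80 (4uM final), 110 s antagonist phase.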
Six1-Eya2 blk: blocks human Six1 binding to Eya2. AID 651725. Q15475+O00167. 360,000 compounds, 0.56% hits. activity change, % (test concentration not listed). AlphaScreen GST-Six1/His-Eya2 binding, biochemical; active compounds read low; control for the full effect not named in the record; in the data active = activity change below about -65%; inconclusive = about -30% to -65%; inactive = above about -30%; note: % is set by controls: 0 for no effect and ±100 for the full control effect
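Homogeneous AlphaScreen proximity assay pairing GST-Six1 with His-tagged Eya2 (added as 5X mix: 250 nM and 500 nM) in 50 mM Tris pH 8.0, 300 mM NaCl, 1 mM TCEP. Glutathione donor and nickel acceptor beads; 1 h, 37 °C, dark.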
TRPML1 inh: inhibitors of human TRPML1 channel | 390,000 compounds, 0.02% hits | Q9GZU1 | activity change, negative = inhibition, % (concentration not given with the values) | TRPML1-inducible cells, Ca2+ dye fluorescence, FDSS; active compounds read low; inhibition of EC80 agonist-evoked calcium signal; in the data active means activity change below about -50%; inconclusive means about -30% to -50%; inactive means above about -30%;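 note: stimulus is agonist 54-4 at its EC80 concentration; % is set by controls: 0 for no effect and ±100 for the full control effect; the text of the record puts the active cut at -80%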
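Tet-induced TRPML1-DL cells loaded with Ca8 no-wash calcium dye were read kinetically on FDSS. Compound addition was followed by EC80 agonist 54-4 (4 uM final); inhibition was read over 110 s.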
PINK1 expr mod: PINK1 expression modulation. PINK1 immunofluorescence, high-content cytometry, 24 h. Potency, µM (top dose mostly 76.6 µM), inactives show top-dose activation (PINK1 increase), hits mostly activators. 410,000 compounds, 0.2% hits. AID 624263; active = well fitted activation curve with a large enough effect; inconclusive = small, poorly fitted or top-dose-only effect; inactive = flat fitted curve, though single readings scatter; cell line not stated here;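 note: potency is the fitted concentration of half-maximal effect; % of control where 0% means no effect; nearly all actives have a fitted effect of over 65% in size; a mitochondrial uncoupler was the plate control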
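Stable cell line, 250 cells/well, 12 h attachment; compounds pinned at 5 concentrations, 24 h; CCCP control. Fixed with nuclear dye, primary antibodies 12 h at 10 degrees C, secondary plus cell stain; laser-scanning cytometer read.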
D2 ag: human D2 receptor agonism in beta-arrestin assay | P14416 | DiscoveRx PathHunter D2 beta-arrestin, luminescence, 90 min; 100% = 57 uM dopamine signal | activation, % (test concentration not listed) | 360,000 compounds, 0.084% hits; in the data active = activation above about 40%; inconclusive = about 15% to 40%; inactive = below about 15%; note: compound concentration not given in the record; the text of the record calls up to 30% inactive
Target sequence (P14416 whole entry, looked up): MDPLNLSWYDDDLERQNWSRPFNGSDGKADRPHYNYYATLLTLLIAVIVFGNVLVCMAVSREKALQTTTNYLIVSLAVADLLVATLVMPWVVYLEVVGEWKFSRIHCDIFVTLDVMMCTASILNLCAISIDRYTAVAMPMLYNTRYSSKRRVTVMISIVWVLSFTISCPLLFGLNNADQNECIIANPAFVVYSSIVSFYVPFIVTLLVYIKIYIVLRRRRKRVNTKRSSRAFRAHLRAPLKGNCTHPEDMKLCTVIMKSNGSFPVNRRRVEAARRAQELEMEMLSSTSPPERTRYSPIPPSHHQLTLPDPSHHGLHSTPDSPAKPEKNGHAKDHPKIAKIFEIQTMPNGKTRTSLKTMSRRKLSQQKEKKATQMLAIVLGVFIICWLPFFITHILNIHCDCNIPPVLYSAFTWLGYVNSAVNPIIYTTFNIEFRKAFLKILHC
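Agonist mode: compounds alone added to overnight-plated D2 PathHunter cells for 90 min at 37 C, with 57 uM final dopamine (EC100) defining full response. Beta-arrestin recruitment detected by chemiluminescent reagent, read after 1 h at ambient temperature.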
CtBP-E1A blk: blocks the CtBP interaction with E1A; AlphaScreen GST-E1A/His-CtBP binding, 1536-well; active compounds read low; control for the full effect not named in the record; activity change, % (test concentration not listed); 340,000 compounds, 0.49% hits; in the data active means activity change below about -65%; inconclusive means about -30% to -65%; inactive means above about -30%; note: % is set by controls: 0 for no effect and ±100 for the full control effect
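GST-E1A and His-tagged CtBP (125 nM each as 5X stock) were preincubated with pin-transferred compound for 2 h at 37 °C in the dark, then glutathione donor and nickel acceptor beads were added for 1 h before AlphaScreen reading.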
Active calls of the source: *.

`CCCCNS(=O)(=O)CCNCc1ccc(OC)cc1` gave TRPML1 ag -0.7, Six1-Eya2 blk 3.7, TRPML1 inh 31.8, PINK1 expr mod -1.0%, D2 ag 2.5 and CtBP-E1A blk 3.5.
CCCc1nc2scc(-c3ccccc3)c2c(=O)n1N was read as TRPML1 ag -0.6, Six1-Eya2 blk 1.1, TRPML1 inh 0.0, PINK1 expr mod inconclusive, D2 ag 4.9 and CtBP-E1A blk 0.5.
For COc1ccc(NC(=O)Cn2c(=O)n(CC(=O)NCc3ccco3)c(=O)c3ccccc32)cc1 the results were TRPML1 ag 0.7, Six1-Eya2 blk 4.0, TRPML1 inh 0.6, PINK1 expr mod -0.5%, D2 ag 0.4 and CtBP-E1A blk -5.3.
For CCOc1ccc2cc(S(=O)(=O)N3CCN(C)CC3)ccc2c1 the results were TRPML1 ag -0.3, Six1-Eya2 blk -0.2, TRPML1 inh -6.6, PINK1 expr mod -1.2%, D2 ag -8.5 and CtBP-E1A blk 6.7.
`CCCCc1ccc(NC(=O)CN(C)CC(=O)Nc2ccccc2Cl)cc1` gave TRPML1 ag 2.6, Six1-Eya2 blk 12.2, TRPML1 inh -2.9, PINK1 expr mod 27.6%, D2 ag 0.9 and CtBP-E1A blk 2.3.
Screening CCOC(=O)c1ccc(NC(=O)CN2C(=O)CSC(C)C2=O)cc1 (stereo unspecified) returned TRPML1 ag -0.7, Six1-Eya2 blk -0.6, TRPML1 inh -17.9, PINK1 expr mod 0.5% and D2 ag 3.7.
Screening O=c1cc(CN2CCN(S(=O)(=O)c3ccc(Cl)cc3)CC2)nc2sc(-c3ccccc3F)nn12 returned TRPML1 ag -0.1, TRPML1 inh -10.3 and PINK1 expr mod 2.4%.
For Cc1ccc(S(=O)(=O)N(CCCc2c(C)nc(N)[nH]c2=O)Cc2ccc([N+](=O)[O-])cc2)cc1 the results were TRPML1 ag -0.5, Six1-Eya2 blk -18.0, TRPML1 inh -1.8, PINK1 expr mod 2.1%, D2 ag -3.2 and CtBP-E1A blk 1.9.
Screening CCCn1c2ccccc2c2cnn(CC(=O)N3CCN(c4ccccc4)CC3)c(=O)c21 returned TRPML1 ag 1.4, TRPML1 inh 15.6 and PINK1 expr mod -0.3%.
For CCOC(=O)c1oc2ccccc2c1NC(=O)C(C)(C)C the results were TRPML1 ag 0.2, Six1-Eya2 blk 6.2, TRPML1 inh -5.2, PINK1 expr mod 1.0%, D2 ag 1.0 and CtBP-E1A blk 9.0.
Screening Cc1ccsc1C(=O)NCc1ccccc1Cl returned TRPML1 ag -0.7, Six1-Eya2 blk 0.6, TRPML1 inh -6.0, PINK1 expr mod 1.5%, D2 ag -3.5 and CtBP-E1A blk 0.0.
Screening O=C(Nc1nnc(-c2ccc(Br)cc2)o1)C1=COCCO1 returned TRPML1 ag -0.9, Six1-Eya2 blk -23.3, TRPML1 inh 16.4, PINK1 expr mod 0.8%, D2 ag -1.5 and CtBP-E1A blk -4.9.
CCCC(=O)Nc1nnc(CC(=O)OCC)s1 was read as TRPML1 ag -0.9, Six1-Eya2 blk 1.1, TRPML1 inh 6.7, PINK1 expr mod -0.4%, D2 ag -1.9 and CtBP-E1A blk -6.5.
`CCOC(=O)Cn1c(=O)n(C2CCCCC2)c2nc(-c3ccc(OCC)cc3)nc(C(N)=O)c21` gave TRPML1 ag 2.0, TRPML1 inh 2.4 and PINK1 expr mod 2.5%.
COc1ccc(Cl)cc1NC(=S)NCc1ccc(S(N)(=O)=O)cc1 was read as TRPML1 ag 2.4, Six1-Eya2 blk -2.0, TRPML1 inh -3.5, PINK1 expr mod 0.3%, D2 ag 0.6 and CtBP-E1A blk 0.3.
`O=C(c1cc(-c2ccc(Cl)cc2)on1)N1CCN(c2ccc(F)cc2)CC1` gave TRPML1 ag -0.3, Six1-Eya2 blk 8.6, TRPML1 inh -2.4, PINK1 expr mod 14.6%, D2 ag 5.2 and CtBP-E1A blk 24.6.
`CCSc1ncc(Cl)c(C(=O)Nc2ccccc2C)n1` gave TRPML1 ag 1.4, Six1-Eya2 blk 17.2, TRPML1 inh inconclusive, PINK1 expr mod 2.2%, D2 ag -4.4 and CtBP-E1A blk 8.6.
For CC(Sc1nncs1)C(=O)Nc1ccc(Cl)cn1 (stereo unspecified) the results were TRPML1 ag 0.0, Six1-Eya2 blk -3.3, TRPML1 inh 22.6, PINK1 expr mod -0.4%, D2 ag -4.6 and CtBP-E1A blk -0.4.
For CC1=CC(C)(C)N(C(=O)CNC2CCCCC2)c2cc(C)ccc21 the results were TRPML1 ag 0.1, Six1-Eya2 blk -12.3, TRPML1 inh 10.8, PINK1 expr mod inconclusive, D2 ag -4.3 and CtBP-E1A blk -22.0.
`C=C(C)C1CC=C(C)/C(=N/NC(=O)CCCNc2cccc(C)c2)C1` (stereo unspecified) gave TRPML1 ag -0.5, Six1-Eya2 blk -22.8, TRPML1 inh -16.2, PINK1 expr mod 5.2%, D2 ag -1.1 and CtBP-E1A blk -14.8.
Screening CCn1c(=O)c2cc(C(=O)NC3CCC(C)CC3)sc2c2ccccc21 (stereo unspecified) returned TRPML1 ag -0.3, TRPML1 inh 12.4 and PINK1 expr mod 5.1%.
For O=C(CN1C(=O)CSC1=O)NCc1ccccc1 the results were TRPML1 ag -0.5, Six1-Eya2 blk 2.2, TRPML1 inh -0.2, PINK1 expr mod 1.6%, D2 ag -3.9 and CtBP-E1A blk 11.0.
CC(C(=O)NCCC1=CCCCC1)N1C(=O)c2ccccc2C1=O (stereo unspecified) was read as TRPML1 ag -0.5, Six1-Eya2 blk 4.2, TRPML1 inh -10.5, D2 ag 1.1 and CtBP-E1A blk 11.3.
`C[C@@H]1C=C(C(=O)N2CCOCC2)O[C@H](OCc2ccc(CO)cc2)C1` gave TRPML1 ag 2.0, Six1-Eya2 blk 9.7, TRPML1 inh -4.8, PINK1 expr mod -1.7%, D2 ag -1.6 and CtBP-E1A blk 10.1.
Screening COc1ccc(NC(=O)CSc2nc(-c3ccc(OC)cc3)cc(=O)[nH]2)cc1 returned TRPML1 ag 0.8, TRPML1 inh 38.0 and PINK1 expr mod 0.8%.
`CN1CCc2c1nc1ccccc1c2N=C1CCCN1Cc1ccccc1` gave TRPML1 ag 0.6, Six1-Eya2 blk 4.2, TRPML1 inh -16.5, PINK1 expr mod 20.9% and D2 ag -7.2.
For CCOc1ccc(NC(=O)c2cc(Cl)nc3ccccc23)cc1 the results were TRPML1 ag -0.6, Six1-Eya2 blk -13.0, TRPML1 inh 7.5, PINK1 expr mod 12.7%, D2 ag -3.3 and CtBP-E1A blk 8.3.
O=C(CC1Sc2ccccc2NC1=O)NNc1ccc(F)cc1 (stereo unspecified) was read as TRPML1 ag -0.6, Six1-Eya2 blk -4.1, TRPML1 inh -6.1, PINK1 expr mod -1.9%, D2 ag -1.8 and CtBP-E1A blk 4.0.
For Cc1ccc(C(=O)COC(=O)CN2C(=O)C3C4C=CC(C4)C3C2=O)cc1[N+](=O)[O-] (stereo unspecified) the results were TRPML1 ag 1.6, Six1-Eya2 blk 17.6, TRPML1 inh -6.6, PINK1 expr mod 1.6%, D2 ag -13.8 and CtBP-E1A blk 0.0.
For CN(C)S(=O)(=O)Oc1cccc(C(=O)Nc2ccc([N+](=O)[O-])cc2)c1 the results were TRPML1 ag -1.1, Six1-Eya2 blk 4.3, TRPML1 inh -9.5, PINK1 expr mod 3.3%, D2 ag -4.8 and CtBP-E1A blk -1.6.
`S=C(Nc1ccc2c(c1)OCO2)N1CCCC1` gave TRPML1 ag 2.1, Six1-Eya2 blk 2.1, TRPML1 inh 19.5, PINK1 expr mod 0.4% and D2 ag -0.3.
For CC(c1ccco1)N(C(=O)c1ccc(F)cc1)c1ccccn1 (stereo unspecified) the results were TRPML1 ag -0.8, Six1-Eya2 blk -1.0, TRPML1 inh 16.0, PINK1 expr mod -1.3%, D2 ag -3.6 and CtBP-E1A blk 0.0.
Screening Cc1ccc(NS(=O)(=O)c2ccccc2F)cc1S(=O)(=O)N1CCCCC1 returned TRPML1 ag -1.5, Six1-Eya2 blk -0.5, TRPML1 inh -6.8, PINK1 expr mod 2.4% and D2 ag -1.1.
`CCNCc1ccccc1OCc1ccccc1` gave TRPML1 ag 3.4, Six1-Eya2 blk 1.8, TRPML1 inh 15.8, PINK1 expr mod -2.0%, D2 ag -1.5 and CtBP-E1A blk 0.1.
`CCCN(CC(=O)Nc1ccccc1OC)C(=O)c1cccc(S(=O)(=O)NCc2ccccc2)c1` gave TRPML1 ag -0.5, Six1-Eya2 blk -1.5, TRPML1 inh 21.1, PINK1 expr mod 1.5%, D2 ag -6.0 and CtBP-E1A blk -4.6.
Screening CC(C)CCN1CCN(Cc2nc3c(s2)CCCC3)CC1CCO (stereo unspecified) returned TRPML1 ag -0.9, Six1-Eya2 blk -7.4, TRPML1 inh 8.1, PINK1 expr mod 1.6%, D2 ag -1.1 and CtBP-E1A blk -3.8.
`CCC(C)NC(=O)Cn1c(=O)n(-c2ccc(C)cc2)c(=O)c2ccccc21` (stereo unspecified) gave TRPML1 ag 0.3, TRPML1 inh 9.8 and PINK1 expr mod 0.9%.
For COc1cccc(CC(=O)Nc2ccc(S(=O)(=O)Nc3nccs3)cc2)c1 the results were TRPML1 ag -0.2, Six1-Eya2 blk -20.2, TRPML1 inh -9.2, PINK1 expr mod 0.6%, D2 ag 1.5 and CtBP-E1A blk -14.0.
CC1CN(S(=O)(=O)c2ccc(C(=O)Nc3sccc3C(N)=O)cc2)CC(C)O1 (stereo unspecified) was read as TRPML1 ag -0.4, Six1-Eya2 blk 5.7, TRPML1 inh -14.7, PINK1 expr mod 8.0%, D2 ag -3.3 and CtBP-E1A blk 1.5.
For O=C(CCn1c(=O)oc2ccccc21)Nc1ccc(C(=O)O)cc1 the results were TRPML1 ag 0.3, Six1-Eya2 blk 0.3, TRPML1 inh 1.0, PINK1 expr mod 3.9%, D2 ag 2.8 and CtBP-E1A blk 2.4.
Screening CCOC(=O)c1c(NC(=O)CN(CC)CC)sc2c1CCC2 returned TRPML1 ag 1.8, Six1-Eya2 blk 3.1, TRPML1 inh -4.0, D2 ag 1.5 and CtBP-E1A blk 3.7.
`Cc1ccc(C)c(NC(=S)N(C)CCO)c1` gave TRPML1 ag -1.3, Six1-Eya2 blk -2.5, TRPML1 inh -6.0, PINK1 expr mod -0.4%, D2 ag 0.8 and CtBP-E1A blk 0.5.
`CCOCCCNC(=S)N1CCCN(c2nc3cc(C)ccc3cc2C#N)CC1` gave TRPML1 ag 2.4, Six1-Eya2 blk 1.3, TRPML1 inh 40.9, PINK1 expr mod 0.0%, D2 ag 0.6 and CtBP-E1A blk 1.6.
COC(=O)c1ccc(NC(=O)c2ccccc2NS(C)(=O)=O)cc1 was read as TRPML1 ag -0.9, Six1-Eya2 blk -0.5, TRPML1 inh 8.5, PINK1 expr mod -2.6%, D2 ag -5.4 and CtBP-E1A blk -0.8.
